NS1 inh: influenza NS1 inhibition. S. cerevisiae slowed by influenza A NS1, growth recovery by OD600. 270,000 compounds, 0.4% hits. Potency, µM (series often up to 46.1 µM), for the others: top-dose activity, positive = more growth; note: actives are rising curves; nearly all actives have a fitted effect of over 50% in size
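In this qHTS, NS1 from influenza A is expressed in budding yeast, where it slows growth. Cells are switched from glucose to 2% galactose medium (pH 6.0, -URA), treated with compound, and growth recovery is read at OD600.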
StopGo reporter: FMDV 2A StopGo reporter, luciferase signal; human cells with a luciferase reporter of 2A StopGo recoding; control for the full effect not named in the record; Potency, µM (titrated, usually from 57.9 µM), without a hit: at the top dose signal change, negative = less light; 410,000 compounds, 1.2% hits; AID 1159524; active = well fitted falling curve with a large enough effect; inconclusive = small, poorly fitted or top-dose-only effect; inactive = no such curve, though single readings can be large or run the other way; tested in HEK293T cells; note: % is set by controls: 0 for no effect and ±100 for the full control effect; nearly all actives have a fitted effect of over 45% in size; luciferase light after 4 h
Marburg entry inh: Marburg virus entry inhibition | Marburg virus pseudotyped entry inhibition, cell reporter; control for the full effect not named in the record; about a third of the inactives were read at about 46 µM | Potency, µM (doses to about 37.8 µM), for inactives: top-dose activity change, negative = inhibition, actives largely listed as inhibitors | 300,000 compounds, 1.8% hits | AID 540276; active = well fitted inhibition curve with a large enough effect; inconclusive = small, poorly fitted or top-dose-only effect, or effect the other way; inactive = flat fitted curve, though single readings scatter; tested in HEK293 cells; about a fifth of its hits are not listed in these tables; note: % is set by controls: 0 for no effect and ±100 for the full control effect; luciferase read-out
Cruzain inh Det: cruzain (T. cruzi) inhibition with detergent | purified cruzain, Z-FR-AMC fluorescence, 0.01% Triton | AID 1478 | Potency, µM, for inactives: max response, negative = inhibition, most hits filed as inhibitors | P25779 | 200,000 compounds, 0.43% hits; active = well fitted curve in the direction sought with a large enough effect; inconclusive = small, poorly fitted or top-dose-only effect, or another doubt; inactive = no such curve, though single readings can be large; an effect the other way counts as inactive or inconclusive;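 note: plate controls were neutral wells for no effect and buffer without enzyme for full effect; nearly all actives have a fitted effect of over 40% in size; top concentration of the series not given in the record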
Target sequence (P25779 123-467 limits assumed): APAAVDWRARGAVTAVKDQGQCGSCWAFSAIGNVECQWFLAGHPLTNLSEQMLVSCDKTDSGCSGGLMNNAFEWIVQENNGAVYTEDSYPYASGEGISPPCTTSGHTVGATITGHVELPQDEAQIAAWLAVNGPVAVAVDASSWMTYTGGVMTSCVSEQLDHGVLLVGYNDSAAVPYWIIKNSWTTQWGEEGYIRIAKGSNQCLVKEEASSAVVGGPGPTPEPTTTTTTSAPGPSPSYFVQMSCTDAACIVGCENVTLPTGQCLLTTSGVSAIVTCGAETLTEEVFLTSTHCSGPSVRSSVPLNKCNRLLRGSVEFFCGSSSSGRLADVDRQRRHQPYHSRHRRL
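Detergent-containing arm of a paired screen for aggregation-based inhibition: 0.01% Triton X-100 present. Cruzain at 1.5 nM cleaved 2 uM Z-FR-AMC at pH 5.5 with 5 mM DTT; AMC fluorescence gain over 60 s measured activity.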
Cruzain noTriton: blocks cruzain activity in detergent-free assay; purified cruzain, Z-FR-AMC fluorescence, no detergent; Potency, µM, without a hit: max response, negative = inhibition, usual class: inhibitors; 200,000 compounds, 2.3% hits; active = well fitted curve in the direction sought with a large enough effect; inconclusive = small, poorly fitted or top-dose-only effect, or another doubt; inactive = no such curve, though single readings can be large; an effect the other way counts as inactive or inconclusive;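 note: plate controls were enzyme without inhibitor for no effect and buffer without enzyme for full effect; nearly all actives have a fitted effect of over 40% in size; top concentration of the series not given in the record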
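Detergent-free condition (0.00005% Triton X-100) in acetate buffer pH 5.5 with DTT. 1.5 nM enzyme and compound were pre-mixed 15 min, then 2 uM Z-FR-AMC substrate added; reaction progress from fluorescence change between first and third reads (60 s).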
RE007 growth inh: less growth of the S. pombe RE007 Vpr strain. S. pombe RE007 Vpr strain, BacTiter-Glo ATP luminescence, 24 h; control for the full effect not named in the record. Potency, µM (titrated, usually from 92.2 µM), inactives show top-dose activity change, negative = less growth. 360,000 compounds, 0.21% hits. AID 651644; active = well fitted falling curve with a large enough effect; inconclusive = small, poorly fitted or top-dose-only effect; inactive = no such curve, though single readings can be large or run the other way;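 note: % is set by controls: 0 for no effect and ±100 for the full control effect; nearly all actives have a fitted effect of over 50% in size; the assay follows cell death caused by Vpr and the record does not say whether a fall means rescue or toxicity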
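Fission yeast RE007 carrying one integrated HIV-1 vpr copy, seeded at OD 0.01 in PMG+AL medium with 23 nL pinned compound. Grown 24 h at 30 degrees; viability read by BacTiter-Glo luminescence after 5 min.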
LASV entry inh: Lassa virus entry inhibition | Potency, µM (series often up to 37.9 µM), inactives show top-dose activity change, negative = inhibition, actives largely listed as inhibitors | Lassa virus pseudotype entry inhibition, cell reporter; control for the full effect not named in the record | 300,000 compounds, 1.2% hits; active means well fitted inhibition curve with a large enough effect; inconclusive means small, poorly fitted or top-dose-only effect, or effect the other way; inactive means flat fitted curve, though single readings scatter; tested in HEK293 cells; note: % is set by controls: 0 for no effect and ±100 for the full control effect; nearly all actives have a fitted effect of over 50% in size; luciferase read-out
SARS PLpro yeast: SARS-CoV PLP inhibition in yeast. S. cerevisiae expressing SARS-CoV PLpro, growth rescue; control for the full effect not named in the record. Potency, µM (series often up to 32.9 µM), without a hit: at the highest dose activity, positive = growth rescue. 330,000 compounds, 0.19% hits. AID 485353; note: 0% is about no effect; nearly all actives have a fitted effect of over 55% in size; growth read by luminescence after 48 h
* hit, by the source's call; ? = inconclusive; . = no result given; & = joins results of further samples; [ ] = remark or other dose. Unless noted, calls come from the whole dose curve; as a rule, active means well fitted rising curve with a large enough effect; inconclusive means small, poorly fitted or top-dose-only effect; inactive means no such curve, though single readings can be large or run the other way. Potency is the fitted concentration of half-maximal effect. Compounds were not picked by outcome, and some 4.7% of all compounds hit somewhere here.

SMILES	NS1 inh	StopGo reporter	Marburg entry inh	Cruzain inh Det	Cruzain noTriton	RE007 growth inh	LASV entry inh	SARS PLpro yeast
COc1ccc(NS(=O)(=O)c2cccc(C(=O)NCC(c3cccs3)N3CCOCC3)c2)cc1 (stereo not given)	.	18%	-8%	.	.	11%	-15%	0%
Cc1cc(C)cc(NC(=O)CCc2nnc3n(CC(C)C)c(=O)c4ccccc4n23)c1	.	-14%	2%[46.1 µM]	1.7%	-4%	.	.	.
COc1cc2nc(Nc3cccc(C)c3)nc(N)c2cc1OC	.	0%	?	?	3%	.	3%[46.1 µM]	.
Cc1ccc(NC(=O)c2cccc3c2C(=O)N(C2CCCCC2)C3)c(Cl)c1	1%	1%	2%[46.1 µM]	.	.	-9%	?	11%
O=C(NNC(=O)c1cccnc1SCc1cccc([N+](=O)[O-])c1)c1ccccn1	-1%	-20%	3.2µM*	0.9%	1%	5%	?	-2%
Cc1ccc(CN(C)C(=O)C2CCC(=O)N(CCc3ccccc3)C2)o1 (stereo not given)	14%	67%[activator]	.	.	.	-11%	.	?
CNc1cc(NS(=O)(=O)c2ccc(N)cc2)nc(NC)n1	?	55%&13%[activator]	26%&26%&40%&26%&26%	-5.6%	6%	-1%[18.4 µM]	?	.
O=C(CSCc1cccc(Br)c1)N1CCOCC1	-5%	49%[activator]	0%	3.7%	2%	-23%	13%	24%
CCCc1nc2ccccc2n1CCc1ccccc1	-18%	-6%	?	-0.8%	5%	-1%	?	18%
COC(/C=C/Nc1ccc(Cl)cc1)=C(C#N)C#N	.	0%	14%[46.1 µM]	.	.	5%	3%[46.1 µM]	12%
COc1ccc(CNC(=O)c2cc3ccccc3oc2=O)cc1	-4%	24%	.	.	.	6%	.	2%
O=C(Cc1ccc([N+](=O)[O-])cc1)Nc1ccon1	1%	-11%	.	.	.	-2%	.	?
CC(CN1C(C)CCCC1C)OC(=O)c1ccc(F)cc1 (stereo not given)	4%	-20%	-23%	.	.	17%	?	0%
CN(CC(=O)N1CCCCCC1)S(=O)(=O)c1cccc2cccnc12	-3%	0%	.	2.8%	-7%	-5%	.	-7%
COc1ccc(OC(C)C(=O)N(C)Cc2nc(-c3cccc(C)c3)no2)cc1 (stereo not given)	-13%	0%	?	.	.	13%	?	4%
O=C1CC(c2ccccc2)=C(c2ccccc2)C1c1ccccc1 (stereo not given)	.	-19%	-7%	.	.	-4%	-2%	.
CCN(CC)C(=O)Oc1ccc2cc(Br)ccc2c1	-4%	8%	?	-5.9%	-8%	?	2%	2%
COc1ccc(-n2c(O)c(C(C)=NCc3ccc4c(c3)OCO4)c(=O)[nH]c2=O)cc1	3%	-16%	9%	.	.	3%	?	1%
O=C(COc1coc(CN2CCN(c3ccc(F)cc3)CC2)cc1=O)NCC1CCCO1 (stereo not given)	.	-15%	?	.	.	-6%	?	0%
O=[N+]([O-])c1cc(C=Nc2ccc3ccccc3c2)ccc1Br	-16%	-6%	-27%	-4.3%	-2%	2%	10%	2%
Brc1ccc(-c2nnc3ccc(Nc4ccccc4)nn23)cc1	14%	.	30%	-3.2%	?	.	7%	2%
NC(=O)Nc1ccc(C(=O)OCC(=O)Nc2ccc(Cl)cn2)cc1	2%	-5%	16%[46.1 µM]	.	.	-14%	1%[46.1 µM]	-1%
CC1CCN(C(=O)CCCOc2cc(=O)n(C)c3ccccc23)CC1	0%	16%	1%	2.5%	0%	30%	-4%	1%
CC1C(=O)Nc2ccccc2N1C(=O)c1ccc(Cl)cc1 (stereo not given)	-5%	0%	.	.	.	5%	.	-1%
O=[N+]([O-])c1ccc2c(c1)C(N1CCOCC1)/C(=C/COc1ccc3ccccc3c1Br)O2 (stereo not given)	?	?	13µM*	-3.9%	25µM*	-17%	?	4%
CCCN(CC(=O)Nc1ccccc1C)C(=O)c1ccc(N2CCCCCC2)c([N+](=O)[O-])c1	3%	20%	?	.	.	-8%	?	5%
COc1ccc(C(=O)O/N=C(\N)c2ccccc2)cc1	-60%	?	?	.	.	?	?	-12%
COCCNc1ccc(-c2nc(-c3cccc(C)c3)no2)cc1[N+](=O)[O-]	.	58%[activator]	?	-3.7%	2%	.	-1%[46.1 µM]	.
O=C(NCc1cccnc1)Nc1cccc(Cl)c1Cl	-2%	17%	-4%[46.1 µM]	.	.	11%	-9%[46.1 µM]	-4%
Cc1cccc(N/C(=N\S(=O)(=O)c2ccccc2)C(F)(F)F)c1	-11%	-17%	12%	8.2%	1%	-23%	-1%	-4%
COC(=O)Cn1ccc2cc(S(=O)(=O)N3CCCCCC3)ccc21	10%	4%&10%	?	-2.9%	0%	-6%	-6%&23%[46.1 µM]	-1%
O=C(O)C(Cc1ccccc1)N1C(=O)/C(=C/c2cccc3ccccc23)SC1=S (stereo not given)	-22%	.	-7%	32µM*	?	.	.	-32%
COc1c(O)ccc(/C=N\NC(=O)c2ccc3c(c2)OCO3)c1[N+](=O)[O-]	16%	51%[activator]	.	.	.	5%	.	-5%
CCc1nc(NCc2ccco2)c2oc3ccccc3c2n1	-88%	-19%	-1%	-7.5%	-9%	-13%	1%	-7%
COc1c(O)c(O)c2oc(-c3ccccc3)cc(=O)c2c1OC	-4%	2%	.	.	.	-1%	.	0%
CCN1CCN(c2ccc(S(=O)(=O)N3CCCCC3)cc2NC(=O)c2cccc(F)c2)CC1	.	-23%	?	.	.	1%	-5%	-3%
COC(=O)CCC(C(=O)CN1C(=O)c2ccccc2C1=O)N1C(=O)c2ccccc2C1=O (stereo not given)	.	-5%	?	.	.	-17%	10%	.
Cc1ccc(NC(=O)c2ccc(OC(=O)COc3cccc(Cl)c3)cc2)cc1	3%	37%[activator]	?	-1.8%	13µM*	6%	20%	-19%
O=C1CCc2cc(S(=O)(=O)N3CCC(C(=O)Nc4nccs4)CC3)ccc2N1	-3%	?	12%	1.1%	9%	4%	10%	-6%
COc1ccc(S(=O)(=O)N2CCC3(CC2)OCCN3S(=O)(=O)c2ccc(C)cc2)cc1OC	.	44%[activator]	24%	.	.	-9%	?	-2%
COc1cc(-c2cc(OC)c3c(C)oc(C)c3c(=O)c2)ccc1OC(=O)c1ccccc1Cl	.	?	?	-21%	26%	.	-2%[46.1 µM]	.
COc1ccccc1C(=O)NCCN1CCN(C(=O)c2ccccc2OC)CC1	-7%	-22%	-26%	-3.4%	-2%	2%	-23%	3%
Cc1ccccc1-c1noc(-c2ccc(O)cc2)n1	-64%	.	?	-7.9%	5%	?	?	-27%
CC(C)/C=N/NC(=O)c1cc(Br)ccc1O	-41%	-11%	4%	-4.9%	12%	.	?	10µM*
CCOC(=O)c1ccccc1NC(=O)Cc1ccccc1OC	-5%	-22%	-6%	-7.3%	-17%	0%	-10%	11%
Cc1ccc(/C=N/n2c(C3CCCCC3)n[nH]c2=S)s1	12%	-10%	3%	-2.6%	-14%	-9%	?	-2%
CC(=O)N1C(=O)/C(=C2\SC(=S)N(NC(=O)c3ccc(O)cc3)C2=O)c2ccccc21	.	-5%	10%[46.1 µM]	.	.	17%	4%[46.1 µM]	2%
CC(=O)Nc1ccc(S(=O)(=O)NCCC(=O)N2CCc3ccccc32)cc1	0%	19%	?	.	.	-11%	2%	13%
Cc1cnc(C(=O)OCC(=O)Nc2cc(-c3cc(C)c(C)cc3C)nn2-c2ccccc2)cn1	.	-20%	0%	.	.	-17%	-2%[46.1 µM]	-2%
Cc1cc(NC(=O)c2ccc(F)c(S(=O)(=O)N3CCCCC3)c2)no1	17%	-23%	1%	.	.	-2%	-23%	6%
O=C(c1ccc(F)cc1)c1c[nH]c(C(=O)NCc2ccco2)c1	12%	-12%	-3%[46.1 µM]	8.2%	-6%	-4%	6%	2%
C=CCN(C(=O)c1ccccc1)c1ccc(OC)cc1	-6%	-4%	?	-1.6%	15%	10%	?	29%
CC1CCN(CC(=O)Nc2ccc(S(=O)(=O)N3CCC(C)CC3)cc2)CC1	5%	-17%	?	.	.	5%	-28%	9%
Cc1nc2ccn(Cc3ccco3)c(=O)c2cc1C(=O)N1CCN(c2ccccc2)CC1	.	-13%	.	0.6%	-13%	.	-7%[46.1 µM]	.
O=S(=O)(c1ccc(-c2cn3ccccc3n2)cc1)N1CCOCC1	8%	-5%	24%	-3.0%	-6%	-1%[3.69 µM]	?	-3%
CC(=O)c1cccc(NC(=O)Nc2cccnc2)c1	2%	20%	5%	-2.7%	-26%	18%	4%	-2%
NC(=O)Nc1cccc(C(F)(F)F)c1	-41%	3%	-10%	1.4%	7%	-5%	10%	-5%
CC(C)(O)CC[C@@H](O)[C@](C)(O)[C@H]1CC[C@@]2(O)C3=CC(=O)[C@@H]4C[C@@H](O)[C@@H](O)C[C@]4(C)[C@H]3CC[C@]12C	0%	-14%	.	.	.	1%[18.4 µM]	.	1%
COc1ccc(NC(=O)C(NC(=O)Cc2cccs2)c2ccc(OC)cc2)cc1 (stereo not given)	.	22%	26%[46.1 µM]	-2.5%	0%	.	?	.
Cc1ccc(-c2nc3ccccc3c(=O)n2-c2cccc(O)c2)cc1	-2%	-29%	18%[46.1 µM]	.	.	-4%	?	-1%

(list continues)
SMILES	NS1 inh	StopGo reporter	Marburg entry inh	Cruzain inh Det	Cruzain noTriton	RE007 growth inh	LASV entry inh	SARS PLpro yeast
Cc1ccc(CCNC(=O)C2CCCN(S(=O)(=O)c3cccc4nsnc34)C2)cc1 (stereo not given)	-9%	-3%	7%	4.1%	-3%	-4%	?	11%
O=[N+]([O-])c1ccc(Cl)c(/C=N/n2c(-c3cccnc3)n[nH]c2=S)c1	12%	.	.	-3.2%	-6%	.	.	?
O=C(c1ccccc1Sc1ccccc1[N+](=O)[O-])N1CCCCC1	0%	-9%	-15%[46.1 µM]	.	.	6%	13%	1%
O=C1c2ccccc2C(=O)N1CCCn1nnc(-c2ccc(N3CCOCC3)cc2)n1	-16%	.	14%	-3.1%	16%	11%	?	-4%

High-throughput results from PubChem BioAssay.
